Source: PubChem BioAssay (National Center for Advancing Translational Sciences (NCATS))
RE007 growth inh: less growth of the S. pombe RE007 Vpr strain; S. pombe RE007 Vpr strain, BacTiter-Glo ATP luminescence, 24 h; control for the full effect not named in the record; Potency, µM (top dose mostly 92.2 µM), without a hit: at the highest dose activity change, negative = less growth; 360,000 compounds, 0.21% hits; active = well fitted falling curve with a large enough effect; inconclusive = small, poorly fitted or top-dose-only effect; inactive = no such curve, though single readings can be large or run the other way;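 note: % is set by controls: 0 for no effect and ±100 for the full control effect; nearly all actives have a fitted effect of over 50% in size; the assay follows cell death caused by Vpr and the record does not say whether a fall means rescue or toxicity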
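Fission yeast strain RE007, carrying one chromosomally integrated HIV-1 vpr copy, was seeded at OD 0.01 in PMG+AL medium with 23 nL pinned compound. After 24 h at 30 °C and 99% humidity, viability was read by BacTiter-Glo luminescence.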
Cruzain noTriton: inhibitors of Trypanosoma cruzi cruzain without detergent; purified cruzain, Z-FR-AMC fluorescence, no detergent; P25779; Potency, µM, for the others: max response, negative = inhibition, actives largely listed as inhibitors; 200,000 compounds, 2.3% hits; active = well fitted curve in the direction sought with a large enough effect; inconclusive = small, poorly fitted or top-dose-only effect, or another doubt; inactive = no such curve, though single readings can be large; an effect the other way counts as inactive or inconclusive;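 note: plate controls were enzyme without inhibitor for no effect and buffer without enzyme for full effect; nearly all actives have a fitted effect of over 40% in size; top concentration of the series not given in the record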
Target sequence (P25779 123-467 limits assumed): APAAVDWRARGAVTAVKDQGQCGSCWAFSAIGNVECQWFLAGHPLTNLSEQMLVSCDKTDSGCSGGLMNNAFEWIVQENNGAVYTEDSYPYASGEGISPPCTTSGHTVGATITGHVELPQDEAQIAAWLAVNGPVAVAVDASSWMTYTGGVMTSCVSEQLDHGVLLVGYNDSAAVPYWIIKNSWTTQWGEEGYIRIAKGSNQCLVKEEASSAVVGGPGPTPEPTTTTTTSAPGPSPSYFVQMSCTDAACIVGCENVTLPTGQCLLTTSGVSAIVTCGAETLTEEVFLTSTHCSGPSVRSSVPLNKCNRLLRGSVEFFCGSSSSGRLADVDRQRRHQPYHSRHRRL
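Detergent-free condition (0.00005% Triton X-100) in acetate buffer pH 5.5 with DTT. 1.5 nM enzyme and compound were pre-mixed 15 min, then 2 uM Z-FR-AMC substrate added; reaction progress from fluorescence change between first and third reads (60 s).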
NS1 function inh: influenza NS1 inhibition. S. cerevisiae slowed by influenza A NS1, growth recovery by OD600. Potency, µM (titrated, usually from 46.1 µM), without a hit: at the top dose activity, positive = more growth. 270,000 compounds, 0.4% hits. AID 2326; note: actives are rising curves; nearly all actives have a fitted effect of over 50% in size
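Recovery from NS1-induced slow growth read by OD600 in budding yeast switched to galactose assay medium (pH 6.0, -URA) at 1:100 dilution. Compound 23 nl per well; the matching strain lacking NS1 serves as control.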
Cruzain inh Det: inhibitors of Trypanosoma cruzi cruzain with detergent | 200,000 compounds, 0.43% hits | P25779 | purified cruzain, Z-FR-AMC fluorescence, 0.01% Triton | Potency, µM, without a hit: max response, negative = inhibition, most hits filed as inhibitors; active = well fitted curve in the direction sought with a large enough effect; inconclusive = small, poorly fitted or top-dose-only effect, or another doubt; inactive = no such curve, though single readings can be large; an effect the other way counts as inactive or inconclusive;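 note: plate controls were neutral wells for no effect and buffer without enzyme for full effect; nearly all actives have a fitted effect of over 40% in size; top concentration of the series not given in the record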
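Steps: dispense cruzain (1.5 nM final) in acetate buffer pH 5.5 with DTT and 0.01% Triton X-100; pin-transfer compounds; incubate 15 min RT; add Z-FR-AMC (2 uM final); read fluorescence every 30 s, using the 60 s intensity change.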
MARV entry inh: inhibitors of Marburg virus binding or cell entry. 300,000 compounds, 1.8% hits. Potency, µM (highest dose often 37.8 µM), without a hit: at the highest dose activity change, negative = inhibition, usual class: inhibitors. Marburg virus pseudotyped entry inhibition, cell reporter; control for the full effect not named in the record; about a third of the inactives were read at about 46 µM; active = well fitted inhibition curve with a large enough effect; inconclusive = small, poorly fitted or top-dose-only effect, or effect the other way; inactive = flat fitted curve, though single readings scatter; tested in HEK293 cells; about a fifth of its hits are not listed in these tables; note: % is set by controls: 0 for no effect and ±100 for the full control effect; luciferase read-out
SARS PLP yeast: blocks SARS-CoV papain-like protease in a yeast assay; Potency, µM (top dose mostly 32.9 µM), without a hit: at the highest dose activity, positive = growth rescue; AID 485353; S. cerevisiae expressing SARS-CoV PLpro, growth rescue; control for the full effect not named in the record; 330,000 compounds, 0.19% hits; note: 0% is about no effect; nearly all actives have a fitted effect of over 55% in size; growth read by luminescence after 48 h
Lassa entry inh: Lassa virus entry inhibition; Lassa virus pseudotype entry inhibition, cell reporter; control for the full effect not named in the record; Potency, µM (series often up to 37.9 µM), inactives show at the highest dose activity change, negative = inhibition, hits mostly inhibitors; 300,000 compounds, 1.2% hits; AID 540256; active means well fitted inhibition curve with a large enough effect; inconclusive means small, poorly fitted or top-dose-only effect, or effect the other way; inactive means flat fitted curve, though single readings scatter; tested in HEK293 cells; note: % is set by controls: 0 for no effect and ±100 for the full control effect; nearly all actives have a fitted effect of over 50% in size; luciferase read-out
StopGo reporter: FMDV 2A StopGo reporter, luciferase signal. 410,000 compounds, 1.2% hits. Potency, µM (series often up to 57.9 µM), inactives show at the top dose signal change, negative = less light. human cells with a luciferase reporter of 2A StopGo recoding; control for the full effect not named in the record; active = well fitted falling curve with a large enough effect; inconclusive = small, poorly fitted or top-dose-only effect; inactive = no such curve, though single readings can be large or run the other way; tested in HEK293T cells; note: % is set by controls: 0 for no effect and ±100 for the full control effect; nearly all actives have a fitted effect of over 45% in size; luciferase light after 4 h
Numbers without * were called inactive; ? = inconclusive; · = no result given; & = joins results of further samples; ! = a repeat was not active; [ ] = remark or other dose. Unless noted, calls come from the whole dose curve; as a rule, active means well fitted rising curve with a large enough effect; inconclusive means small, poorly fitted or top-dose-only effect; inactive means no such curve, though single readings can be large or run the other way. Potency is the fitted concentration of half-maximal effect. Compounds were not picked by outcome. About 4.7% of those tested had a hit in this group.

SMILES	RE007 growth inh	Cruzain noTriton	NS1 function inh	Cruzain inh Det	MARV entry inh	SARS PLP yeast	Lassa entry inh	StopGo reporter
CC(C)n1ncc2c(C(=O)NCCOc3ccccc3F)cc(C3CC3)nc21	3%	·	·	·	?	-7%	?	?
Cc1ccc(S(=O)(=O)Nc2ccc3c(c2)nc(CCN2CCOCC2)n3C)cc1	3%	·	?	·	·	8%	·	8%
Cc1cc(C)c(NC(=O)Cn2nnc(C(=O)NCc3cccs3)c2N)c(C)c1	19%	?	17%	1.6%&5.3%	?	0%	17%[46.1 µM]	40µM*!
CC(=O)OCc1c(C)cc(C)c(/C=C(/C#N)C(N)=O)c1C	3%	·	-4%	·	-3%[46.1 µM]	0%	12%	4%
COC(=O)CCC(=O)Nc1cccc([N+](=O)[O-])c1	0%	·	·	·	4%	2%	3%	-8%
Cn1nc(C(=O)Nc2ccccc2C#N)c2c1-c1ccccc1SC2	·	16%	·	-4.7%	2%[46.1 µM]	·	10%[46.1 µM]	-7%
COc1ccc2c(OC)cc(-c3ccccc3)nc2c1	3%	13%	-9%	-11%	-12%	-34%	0%	-12%
COc1ccccc1Nc1c2c(nc3ccc(NC(=O)c4ccc(OC)c(OC)c4)cc13)CCCC2	·	1%	·	-7.0%	2.2µM*	·	?	?
O=S(=O)(c1ccc(Br)cc1)N1CCn2c(nc3ccccc32)C1	2%	5µM*	-4%	-3.1%	·	2%	·	-23%
O=C1CCCc2cc(S(=O)(=O)NCC3CCC(C(=O)Nc4ccccc4F)CC3)ccc2N1 (stereo unspecified)	·	-8%	·	0.1%	·	·	-3%[46.1 µM]	-29%
CC1(C)CNc2cc(N)ccc2S1	0%	·	·	·	-7%[46.1 µM]	-3%	5%	29%
COc1ccc(Cn2c(=O)[nH]c3cc(C(=O)NCCc4ccc(S(N)(=O)=O)cc4)ccc3c2=O)cc1	4%	·	·	·	-22%[46.1 µM]	0%	16%[46.1 µM]	-6%
COc1cccc(CN(C(=O)COc2ccc(Cl)cc2)C2CCS(=O)(=O)C2)c1 (stereo unspecified)	-3%	·	-19%	·	?	-1%	4%[46.1 µM]	3%
CCSc1ncc(Cl)c(C(=O)Nc2ccc(S(=O)(=O)N3CCCCC3CC)cc2)n1 (stereo unspecified)	·	?	·	-7.0%	-25%[46.1 µM]	·	?	1%
O=C(NC1(C(=O)O)CCCC1)C(Cl)Cl	15%	·	·	·	1%[46.1 µM]	·	?	-3%
Cc1ccc(CS/C(Nc2ccccc2C)=C(\C#N)C(=O)NCc2ccco2)c(C)c1	9%	?	2%	-0.2%	?	1%	3.7µM*	-27%
CS(=O)(=O)N(CC(=O)N1CCN(Cc2ccccc2)CC1)Cc1ccccc1	-8%	-2%	-4%	-0.2%	?	2%	?	·
Cc1ccc(NC(=O)CN(C)CC(=O)Nc2cccc(F)c2)cc1[N+](=O)[O-]	-3%	·	·	·	?	2%	?	?
CCN(CC)c1cc(C)c2cc(NC(=O)c3cc(OC)cc(OC)c3)ccc2n1	·	2%	·	-8.2%	0%[46.1 µM]	·	?	-24%
COc1ccc(C2OCC3(CO2)SC(=O)NC3=O)cc1 (stereo unspecified)	-6%	14%	-13%	-2.4%	-5%	0%	5%	-16%
COc1cccc(Nc2c3c(nc4c(-c5ccccc5)c(C)nn24)CCC3)c1	·	?	22%	-9.3%	?	-25%	?	?
CSc1nnc(Cc2cc(=O)[nH]c(=O)[nH]2)n1-c1cccc(C)c1	8%	-6%	2%	6.7%	-3%	2%	13%	-6%
COc1ccc(OC)c(NC(=O)COC(=O)/C=C/c2ccccc2Cl)c1	-13%	-14%	11%	-9.1%	28%	-8%	12%	-9%
COc1ccc(N=Cc2sc3ccccc3c2Cl)cc1	0%	0%	-3%	1.5%	3%	3%	13%	·
O=C(O)CCCCCN1C(=O)/C(=C\c2ccncc2)SC1=S	-7%	?	-19%	1.1%	4%	-11%	-8%	-12%

Gathered by group, those above containing an aryl thioether with sulfur outside any ring.
SMILES	RE007 growth inh	Cruzain noTriton	NS1 function inh	Cruzain inh Det	MARV entry inh	SARS PLP yeast	Lassa entry inh	StopGo reporter
CCSc1ncc(Cl)c(C(=O)Nc2ccc(S(=O)(=O)N3CCCCC3CC)cc2)n1 (stereo unspecified)	·	?	·	-7.0%	-25%[46.1 µM]	·	?	1%
CSc1nnc(Cc2cc(=O)[nH]c(=O)[nH]2)n1-c1cccc(C)c1	8%	-6%	2%	6.7%	-3%	2%	13%	-6%

Next compounds.
SMILES	RE007 growth inh	Cruzain noTriton	NS1 function inh	Cruzain inh Det	MARV entry inh	SARS PLP yeast	Lassa entry inh	StopGo reporter
S=c1[nH]nc(-c2cccnc2)n1/N=C/C=C/c1ccccc1	9%	-7%	2%	-1.4%	-15%	-21%	?	15%
Cc1ccccc1Cn1nnc(C(=O)Nc2ccc3c(c2)OCCO3)c1N	-24%	·	·	·	-10%	-1%	-26%	50%[activator]
O=S1(=O)CCO[C@H]2Cc3ccccc3[C@H]2N1Cc1ccccc1F	-13%	·	3%	·	·	6%	·	-19%
CCOc1ccc(N2C(=O)CC(Sc3ncccn3)C2=O)cc1 (stereo unspecified)	-19%	-2%	-3%	-1.4%	-4%	-11%	4%	10%
CCN(C(=O)COC(=O)/C=C/c1ccc(C)o1)c1c(N)n(Cc2ccccc2)c(=O)[nH]c1=O	-8%	·	·	·	14%	-1%	4%	-6%
COc1ccccc1-n1c(SCC(N)=O)nc2sc3c(c2c1=O)CCC3	11%	·	5%	·	-1%[46.1 µM]	0%	?	-13%
CNc1c([N+](=O)[O-])cnn1-c1cccc(Cl)n1	6%	·	2%	·	18%[46.1 µM]	2%	-8%	-20%
O=C(O)C(Cl)(Cl)Cl	2%[18.4 µM]	8%&-7%	·	7.0%&4.6%	·	·	·	-11%
N#Cc1ccc(Cl)cc1NC(=O)COC(=O)[C@H](CCC(N)=O)NC(=O)c1ccc(F)cc1	-6%	20µM*	2%	20µM*	?	?	13%&5%	-9%
Cc1ccc(CNC(=O)CCNS(=O)(=O)c2ccc3c(c2)oc(=O)n3C)cc1	·	-1%	·	1.0%	1%[46.1 µM]	·	2%[46.1 µM]	7%
COCCNc1nc(C)c(C(C)=O)s1	-25%	·	2%	·	5%[46.1 µM]	-1%	·	6%
Nc1[nH]n2c(=O)c3c(nc2c1N=Nc1ccccc1)CCCC3	-5%	4%	9%	0.6%	-6%[46.1 µM]	-2%	?	?
CC1CCCN(C(=O)c2ccc(COc3ccccc3Br)cc2)C1 (stereo unspecified)	-28%	5%	3%	-2.3%	11%	-10%	-12%	-23%
O=C(COC(=O)C1=NN(c2ccccc2)C(=O)CC1)NCc1ccccc1Cl	-3%	·	·	·	8%	6%	1%	0%
O=C(NCc1ccco1)C1CCN(S(=O)(=O)Cc2ccccc2)CC1	4%	-2%	-7%	1.9%	13%	9%	18%	·
Cn1c(O)c(C=NCCCC(=O)O)c(=O)n(C)c1=O	16%	-5%	-12%	3.6%	1%	-5%	15%	11%
COc1ccc2[nH]c3c(c2c1)CCN1C(=O)C(CC(=O)NCCC2=CCCCC2)C[C@H](C(=O)N2CCCCC2)[C@@]31C (stereo partly specified)	-1%	·	·	·	0%	-12%	·	-9%
CSc1ccc(CCNS(=O)(=O)c2c(C)[nH]c(C)c2C(=O)N2CCCCC2)cc1	3%	·	-7%	·	-27%[46.1 µM]	-3%	?	45%[activator]
Oc1c(C(c2cccs2)N2CCN(c3ccc(F)cc3)CC2)sc2ncnn12 (stereo unspecified)	0%	0%	-8%	-1.2%	·	7%	·	-14%
COCCSc1ccccc1C(=O)Nc1ccc2c(c1)OCCO2	-8%	0%	-7%	2.8%	16%[46.1 µM]	-15%	-5%	20%
Cc1cc2cc(CNS(=O)(=O)c3ccccc3)ccc2n1C	1%	?	6%	-3.0%	·	-7%	·	-4%
COc1cc(NC(=O)c2c(F)c(F)c(OC)c(F)c2F)ccc1NC(=O)c1cccs1	0%	·	1%	·	1%	-4%	?	-10%
S=C(NCc1ccco1)Nc1ccc(Cl)cn1	3%	·	14%	·	·	-4%	·	14%
CCn1cc(C(=O)NN)c(=O)c2cc(F)c(N3CCOCC3)cc21	-1%	·	14%	·	16%	-3%	18%	-2%
Cc1ccc(NS(=O)(=O)c2ccc3[nH]c4c(c3c2)CCCCCC4)cc1C	·	?	·	-6.1%	·	·	-29%[46.1 µM]	35%[activator]

Remaining list, next part.
SMILES	RE007 growth inh	Cruzain noTriton	NS1 function inh	Cruzain inh Det	MARV entry inh	SARS PLP yeast	Lassa entry inh	StopGo reporter
O=C(O)CCN1C(=O)/C(=C\c2ccc(OCc3ccccc3)c(OCc3ccccc3)c2)SC1=S	-13%	·	23%	·	·	4%	·	-24%
COC(=O)c1c(N2C(=O)CC(Sc3ncccc3C(=O)O)C2=O)sc(C)c1C (stereo unspecified)	2%	·	16%	·	?	2%	8%[46.1 µM]	-15%
Cc1ccc(CN(C)C(=O)C2CCC(=O)N(C3CCCCCC3)C2)cc1 (stereo unspecified)	-2%	·	-5%	·	?	-1%	-4%[46.1 µM]	-13%
COc1ccc(S(=O)(=O)N(C)CC(=O)N2CCCCCC2)cc1OC	-4%	-13%	-1%	-3.3%	1%	3%	8%	-12%
CCc1ccc(-n2c(=O)c3cccnc3n2CC(=O)N(CC)c2cccc(C)c2)cc1	·	?	·	-9.2%	·	·	-26%[46.1 µM]	-16%
CCNc1nc(NCC)n2c(SCC(=O)Nc3ccccc3)nnc2n1	25%	·	-1%	·	?	-1%	2%	-7%
Cc1ccc(C2=Nc3ccccc3N(CC(=O)NCc3ccccc3Cl)C(=O)C2)cc1C	·	25µM*	·	-9.8%	·	·	?	32%[activator]
COc1cc(/C=C/C(=O)O)cc(S(=O)(=O)NCC2CCCO2)c1OC (stereo unspecified)	31%	·	3%	·	4%[46.1 µM]	0%	?	23%
